# Vaccinia mCherry = qHTS for Stage-Specific Inhibitors of Vaccinia Orthopoxvirus: mCherry Reporter Primary qHTS; Vaccinia virus mCherry reporter infection, fluorescence; about a quarter of the inactives have no number; Potency, µM (top dose mostly 36.5 µM), without a hit: at the top dose activity change, negative = inhibition, actives largely listed as inhibitors; hit rate 0.63% among 310,000; AID 720579, 2013; active = well fitted inhibition curve with a large enough effect; inconclusive = small, poorly fitted or top-dose-only effect; inactive = no such curve, though single readings can be large or run the other way; tested in A549 cells; further: nearly all actives have a fitted effect of over 35% in size; inactives centre near -10
# VACV Venus inh = qHTS for Stage-Specific Inhibitors of Vaccinia Orthopoxvirus: Venus Reporter Primary qHTS. Vaccinia virus Venus reporter expression, fluorescence. hit rate 0.46% among 330,000. Potency, µM (series often up to 36.5 µM), inactives show at the highest dose activity change, negative = inhibition, actives largely listed as inhibitors; active means well fitted inhibition curve with a large enough effect; inconclusive means small, poorly fitted or top-dose-only effect; inactive means no such curve, though single readings can be large or run the other way; tested in A549 cells; further: nearly all actives have a fitted effect of over 30% in size; inactives centre near -10
# * = called active by the depositor; i = inactive; ? = inconclusive; · = not tested or not shown; & = joins results of further samples; [ ] = dose if it differs, or a comment. On the % scale 0 is the no-effect control and ±100 the full control effect; potency means the concentration at half of the fitted maximal effect.
structure	Vaccinia mCherry	VACV Venus inh
Cc1cccc(OCCCCCNCCO)c1	-19%	-3%
CCCc1ncc(C(O)(c2ccccc2)c2ccc(C)cc2)n1C (centres undefined)	-15%	-1%
Cc1ccc(-n2c(Cl)c(Cl)nc(Cl)c2=O)cc1	?	?
COC(=O)[C@H](C)[C@@H]1C[C@@]1(C)[C@@H](NC(=O)OCc1ccccc1)c1ccccc1	-19%	-2%
CC1(C)OC2OC3C(CN)OC(c4ccccc4)OC3C2O1 (centres undefined)	-13%	-5%
O=C(Nc1ccc(C2CC2(Cl)Cl)cc1)c1ccccc1Br (centres undefined)	5%	-3%
COc1ccc(OC)c(CN2CCN(C(=O)c3cccc(S(=O)(=O)Nc4ccc(C)cc4)c3)CC2)c1	-21%	?
O=C(Cn1nc(Cc2cccnc2)c2ccccc2c1=O)N1CCN(c2ccccc2F)CC1	-8%	-9%
CN(CCCc1cnc[nH]1)C(=S)NCCCN(Cc1ccc(Cl)cc1)c1ccc(Br)cn1	5%	-18%
O=C(Cn1cc(C(F)(F)F)ccc1=O)N/N=C/c1ccc(Cl)c(Cl)c1	?	?
Cc1cc(C(F)(F)F)c2c(n1)sc1c(O)cc(=O)[nH]c12	-10%	0%
Cc1ccc(S(=O)(=O)N2CCCC2CNC(=O)C(=O)Nc2ccccc2)cc1 (centres undefined)	-24%	-26%
O=c1[nH]c(C(Cl)(Cl)Cl)nc2ccc3ccccc3c12	-21%	-10%
CCOCc1nnc(NC(=O)C2c3ccccc3Oc3ccccc32)s1	-5%	-8%
Cc1cccc(C(=O)NC(NCCc2ccccc2)C(Cl)(Cl)Cl)c1 (centres undefined)	-11%	-11%
N#Cc1cc2c(=O)n3ccccc3nc2n(-c2ccc(Cl)cc2)c1=O	-3%	4%
COc1cccc(OC)c1C(=O)Nc1ccc2c(c1)N(C(C)=O)CCC2	-13%	-11%
COc1ccc(OC)c(Nc2ncnc3c2cnn3-c2ccc(C)cc2)c1	-12%	-6%
COc1ccccc1-c1ccnc(-n2ncc(C(=O)NCCCN3CCOCC3)c2C)n1	-24%	-9%
CC(=O)OC(C)[C@H]1CC[C@H]2[C@@H]3CC[C@H]4C[C@@H](OC(C)=O)CC[C@]4(C)C3=CC[C@]12C (some centres undefined)	i	-16%
NN/C(=C\[N+](=O)[O-])Nc1ccc(Cl)cc1	-22%	-17%
CCOC(=O)C1(Cc2ccccc2C)CCCN(C(=O)CN2CCCCC2=O)C1 (centres undefined)	-13%	-17%
O=C(N/C(=C/c1ccco1)C(=O)N1CCc2ccccc21)c1ccco1	-14%	-4%
Cc1ccc(-c2nc3cc(C)c(Br)c(C)n3c2Cc2cccc(F)c2)cc1	46%[activator]	1%
CCC(C)Sc1ccc([C@H]2N[C@@](CC(C)C)(C(=O)OC)[C@H]3C(=O)N(CC)C(=O)[C@@H]23)cc1 (some centres undefined)	-8%	-13%
Cc1ccc2c(n1)sc1c(=O)n(-c3cccc(C(F)(F)F)c3)nnc12	4%	-15%
Cc1ccc(C)c(S(=O)(=O)Nc2ccc3[nH]c(=O)[nH]c3c2)c1	-28%	-1%
Cc1cccc(-c2nc3cc(NC(=O)Cc4ccc(Cl)cc4)ccc3o2)c1	-18%	-14%
CCc1ccc(Nc2n[n+](-c3ccccc3)c(-c3ccc(OCc4ccccc4)cc3)s2)cc1	i	?
CCCCn1c2ccccc2c2nnc(SCCN3CCCCC3)nc21	-1%	-11%
Cc1c(NC(=O)c2cc(=O)[nH]c(=O)[nH]2)c(=O)n(-c2ccccc2)n1C	i	-7%
CCN(C(=O)COC(=O)c1cccc(S(=O)(=O)NCc2ccccc2)c1)c1ccccc1	-26%	-23%
COc1cccc(CNC(=O)[C@@H]2CCCN2C(=O)[C@H]2CCCCN2C(=O)OC(C)(C)C)c1	-5%	-7%
CCc1ccc(S(=O)(=O)c2nnn3c2nc(N2CCN(c4ccccc4)CC2)c2cc(Cl)ccc23)cc1	-5%	-10%
Cc1cc(C(=O)COC(=O)CC2Sc3ccccc3NC2=O)c(C)n1-c1ccc2c(c1)OCO2 (centres undefined)	-1%	-7%
COC(=O)COc1ccc(/C=C2/SC(=O)N(CC(=O)N3CCCC3)C2=O)cc1Br	i	-16%
O=C(NCC(c1ccc(F)cc1)N1CCOCC1)c1cccc(Br)c1 (centres undefined)	i	-13%
CC(C)(C)n1ncc2c(=O)n(Cc3c(F)cccc3Cl)cnc21	·	-21%
Cc1ccc(NC(=O)c2cc3c(-c4ccccc4)nn(-c4ccccc4)c3s2)cc1	-7%	-3%
CC(C)(C)S(=O)N1Cc2ccc(CO)cc2[C@H]1CCO (some centres undefined)	4%	-11%
CCCCn1c(CN2CCOCC2)nc2c1c(=O)n(C)c(=O)n2C	-14%	-8%
COc1ccc(COC(=O)C2=C(C)NC(=O)NC2c2ccc(F)cc2)cc1 (centres undefined)	-3%	-22%
CN(C)CC(C(=O)c1ccccc1)c1ccccc1 (centres undefined)	14µM*	10µM*
COC(=O)c1ccc(OCC(O)CN2CCc3cc(OC)c(OC)cc3C2c2ccccc2)cc1 (centres undefined)	?	-13%
Nc1cccc(-c2cc(-c3ccccc3)nc(-c3cccc(N)c3)n2)c1	?	?
CCCCOC(=O)c1ccc(NC(=O)c2c(O)[nH]c(=O)[nH]c2=O)cc1	i	-8%
Oc1cc(O)cc(/C=C/c2ccc(O)c(O)c2)c1	-25%&-8%	-16%&-14%
O=c1cc(-c2ccccc2Cl)oc2ccc([N+](=O)[O-])c(O)c12	?	-23%
O=C(NCCCN1CCOCC1)c1cc(-c2ccccc2)on1	?	-26%
CCC(Oc1ccccc1)C(=O)Nc1cc(-c2ccccc2F)nn1-c1ccccc1 (centres undefined)	-25%	-14%

# Laid out differently: entries from further up
N#Cc1cc2c(=O)n3ccccc3nc2n(-c2ccc(Cl)cc2)c1=O
  Vaccinia mCherry: -3%
  VACV Venus inh: 4%
COc1cccc(OC)c1C(=O)Nc1ccc2c(c1)N(C(C)=O)CCC2
  Vaccinia mCherry: -13%
  VACV Venus inh: -11%

# The results go on:
structure	Vaccinia mCherry	VACV Venus inh
N#CC1=C2SCN(c3ccccc3)CN2C(=O)CC1c1cccs1 (centres undefined)	-17%	-6%
COC(=O)c1cn(NC(=O)c2cccc(N(C)C)c2)c(=O)c2ccccc12	-14%	-17%
CCOC(=O)C1=C(CN2CCCCC2)NC(=O)NC1c1ccc(C)cc1 (centres undefined)	-5%	-9%
Cc1csc(Nc2ccc(Cl)cc2)[n+]1-c1ccc(Cl)cc1	-10%	-13%
O=S(=O)(Nc1ccc2oc3c(c2c1)CCCC3)c1cc(Cl)ccc1Cl	-11%	5%
O=S(=O)(NC(CO)Cc1ccccc1)c1ccc(Br)cc1F (centres undefined)	i	-14%
COCCNC(=O)c1onc(CSc2ccc(F)c(F)c2)c1C(=O)NCCOC	i	-5%
CCCOc1ccc(NC(=O)CC2C(=O)N(c3ccccc3)C(=O)N2CCC(C)C)cc1 (centres undefined)	-7%	-17%
Cc1c(Cl)cccc1NC(=O)CN1C(=O)CCn2nc(-c3cccn3C)cc21	-11%	-6%
O=C(c1cc(-c2ccccc2)on1)N1CCCC1	-2%	-16%
CCOc1ccccc1-n1c(=S)sc2c(=O)n(-c3ccccc3)c(=S)[nH]c21	0%	-10%
Cc1cc(C)nc(Nc2n[nH]c(-c3ccccc3Cl)n2)n1	i	-11%
CC1CCN(C(=O)c2ccc3c(=O)n4c(nc3c2)CCCCC4)CC1	-9%	-15%
CCCc1cc(=O)[nH]c2nnc(SCC(=O)NC3CCCCC3)n12	-10%	-8%
Cc1nnc(SCC(=O)N2CC(=O)Nc3ccccc32)n1-c1ccccc1	-15%	-6%
COc1ccc(-n2c(-c3ccc(Cl)cc3)n[nH]c2=S)c(OC)c1	i	-5%
CN(C(=O)COC(=O)c1cccc(NS(=O)(=O)c2ccc(F)c(F)c2)c1)C1CCS(=O)(=O)C1 (centres undefined)	-21%	-9%
NC(=O)c1ccccc1NC(=O)N1CCOCC1	-16%	-16%
Cc1ccc(SCC(=O)N/N=C/c2ccco2)cc1	-7%	-13%
CN(Cc1ccccc1)C(=O)C1CCN(S(C)(=O)=O)CC1	-15%	0%
Cc1c(C)c2c(OCC(=O)NCc3cccnc3)cc3c(c2oc1=O)CCC(C)(C)O3	-17%	-9%
O=S(=O)(c1ccc(Br)cc1)c1cnc2ccccc2n1	?	-11%
Cc1ccccc1NC(=O)NC(N)=O	i	-13%
O=C(Nc1cc(Cl)ccc1Cl)N1CCN(C(=O)Nc2cc(Cl)ccc2Cl)CC1	1%	-10%
Cc1ccc(C(=O)O)cc1N1CCCC1=O	-4%	-15%
OC(c1ccccc1)(c1ccccc1)C1CCN(CCCOc2ccccc2Cl)CC1	?	?
C=CCn1nc2ccccc2c1OCCO	-2%	-3%
N#C/C(=C\c1cccc(F)c1)c1nc(-c2cc3ccccc3oc2=O)cs1	-6%	10%
CO/C=C\C=C/c1nnn(-c2ccc(Cl)cc2)n1	-3%	1%
COC(=O)[C@@H]1C[C@@]2(O)[C@@H](O)[C@@H](O)[C@@H](O)C[C@H]2N1CC1CCCCC1	i	1%
CC(C)c1ccc(S(=O)(=O)N2CCN(C(=O)CN3C(=O)c4ccccc4C3=O)CC2)cc1	-3%	1%
Cc1ccc(N/N=C/c2c(C)c(C#N)c(=O)n(C)c2O)cc1C	i	15%
CCOc1ccccc1N(CC(=O)Nc1ccccc1C(=O)N1CCOCC1)S(C)(=O)=O	-16%	-1%
Cc1ccc(OCC(=O)NC(=S)Nc2cccc(NC(=O)c3ccccc3Cl)c2)cc1	-19%	-8%
CCOC(=O)c1noc2ncn(CC(=O)Nc3ccccc3OC)c(=O)c12	-2%	-4%
Cc1nn(CC(=O)O)c(=O)c2cc3cc(F)ccc3n12	-2%	4%
CCOC(=O)c1cc(-c2cccnc2)nn1-c1ccccn1	·	0%
Cc1cc(C)c2cc(C#N)c(NCCNC(=O)c3ccccc3)nc2c1	i	-19%
Cc1ccc(C)c2sc(NC(=O)c3ccc(S(=O)(=O)N4CCC(C)CC4)cc3)nc12	-12%	-7%
Cc1[nH]c2ccc(F)cc2c1CCN(Cc1cccnc1)C(=S)Nc1cccc(F)c1	-17%	-26%
COc1ccccc1-c1cc(C(=O)N2CCCCC2)no1	-22%	-6%
COc1ccccc1NC(=O)CSc1nnc(CNC(=O)c2ccco2)o1	i	-10%
COc1cc(/C=C(\C#N)C(=O)NCC2CCCO2)ccc1OCCC(C)C (centres undefined)	-16%	9%
Cc1c(NS(=O)(=O)c2cc(C(=O)N3CCCC(C)C3)ccc2Cl)c(=O)n(-c2ccccc2)n1C (centres undefined)	-14%	5%
O=C(Nc1nc2ccc(Cl)cc2s1)c1cccc(N2C(=O)CCC2=O)c1	-13%	-1%
COc1cccc(-c2nc(CS(=O)(=O)CC(=O)NCCCN3C(C)CCCC3C)c(C)o2)c1 (centres undefined)	-10%	-13%
COc1ccc(C(C)(O)c2nc(-c3cccs3)cs2)cc1 (centres undefined)	i	0%
CC(C)(C)c1ccc(O)c(N=Cc2cc3c(cc2[N+](=O)[O-])OCO3)c1	-6%	-14%
CCCCNC(=O)c1c(CSc2ccc(Cl)cc2)noc1C(=O)NCc1ccccc1	i	-13%
CCCC(=NC(C)CC)C1=C(O)CC(c2ccccc2)CC1=O (centres undefined)	56%[activator]	10%

# Next section.
structure	Vaccinia mCherry	VACV Venus inh
O=C(COc1ccc(Br)cc1CO)Nc1ccccc1F	·	-3%
Cc1ccc(N(CC(=O)Nc2cccc(F)c2)S(=O)(=O)c2cccs2)cc1	19%	26%
CCN1CCN(S(=O)(=O)c2ccc(Cl)c(C(=O)N(C)C3CCCCC3)c2)CC1	i	-12%
CC(=O)N1CCN(c2ccc([N+](=O)[O-])cc2C=C2C(=O)NC(=O)NC2=O)CC1	i	-20%
Cc1ccc(C)c(-n2c(-c3ccco3)n[nH]c2=S)c1	-13%	2%
Nc1ccc2nc3c(=O)n(CCc4ccccc4)c(=O)[nH]c3nc2c1	-9%	72%[activator]
COc1cc(/C=N/NC(=O)Cn2nnc3ccccc32)ccc1O	?	-12%
O=C(NCCCn1ccnc1)/C(=C\c1cccnc1)NC(=O)c1ccco1	-2%	-16%
CCOc1ccc(/C=N/NC(=O)c2[nH]c3ccc(C)cc3c2C)cc1	-11%	-13%
CCCNc1nc2ccccc2c(=O)[nH]1	-3%	-6%
Cc1cccc(C)c1NC(=O)c1cc(-c2ccccn2)nc2ccccc12	i	-5%
Cc1ccccc1-c1nn2c(=O)cc(CN3CCN(C(=O)/C=C/c4ccccc4)CC3)nc2s1	-29%	-28%
CCN1CCN(C(CNC(=O)c2ccc3c(c2)OCO3)c2cccnc2)CC1 (centres undefined)	-12%	15%

# Look-ups from the list.
# Value of `Cc1c(NS(=O)(=O)c2cc(C(=O)N3CCCC(C)C3)ccc2Cl)c(=O)n(-c2ccccc2)n1C` (centres undefined) under VACV Venus inh: 5%
# Value of `Cc1ccccc1-c1nn2c(=O)cc(CN3CCN(C(=O)/C=C/c4ccccc4)CC3)nc2s1` under VACV Venus inh: -28%

# Screening results: PubChem BioAssay, National Center for Advancing Translational Sciences (NCATS)
